rRNA inh HTS: reduced GFP signal of wild-type E. coli, primary screen, bacterial rRNA inhibitor project, GFP/RFP fluorescence, OD600, single point; AID 720706, 2013; actives 1.6% (n = 350,000); GFP signal change (wild-type ribosome), % (concentration not given with the values); E. coli WT GFP vs humanized-ribosome RFP mutants, 24 h; hits give low values; DMSO median 0, no signal -100;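 active = significant combined selectivity score with lowered wild-type GFP, culture density cut under 30%, mutant RFP and density less affected; inactive = any of these conditions unmet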; note: one replicate is shown; some compounds called inactive have numbers as strong as hits
MLL AF4-AF9 inh: inhibitors of AF4 peptide binding to AF9, primary screen, biochemical, AlphaScreen, biotin-AF4 peptide, FLAG-AF9, single point. Protein AF-9 (Homo sapiens), P42568. actives 0.47% (n = 350,000). inhibition, % at 10 µM;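 active = every replicate reaching a set inhibition limit, whatever the replicate mean, cut at about 25% in these data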;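 note: 0% = plate neutral control median and 100% = total signal loss; the record names both 10 and 1 µM as test concentration; the first replicate is given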
Target sequence (P42568 whole entry, looked up): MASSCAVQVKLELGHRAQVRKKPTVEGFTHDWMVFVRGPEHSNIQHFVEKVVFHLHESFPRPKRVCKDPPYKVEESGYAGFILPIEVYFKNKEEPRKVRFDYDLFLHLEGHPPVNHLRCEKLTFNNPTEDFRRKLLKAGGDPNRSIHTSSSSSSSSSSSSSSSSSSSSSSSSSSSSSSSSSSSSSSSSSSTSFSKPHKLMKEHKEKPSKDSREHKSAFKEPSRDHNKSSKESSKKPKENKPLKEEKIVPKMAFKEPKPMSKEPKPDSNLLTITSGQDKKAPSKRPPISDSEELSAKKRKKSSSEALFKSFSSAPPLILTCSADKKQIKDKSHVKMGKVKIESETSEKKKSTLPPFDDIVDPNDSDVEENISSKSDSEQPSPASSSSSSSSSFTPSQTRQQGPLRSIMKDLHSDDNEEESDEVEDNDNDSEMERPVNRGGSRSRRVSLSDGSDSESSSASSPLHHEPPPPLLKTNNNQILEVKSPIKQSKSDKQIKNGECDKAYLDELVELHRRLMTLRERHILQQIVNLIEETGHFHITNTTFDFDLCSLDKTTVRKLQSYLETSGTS
FGF22 binding: binders of human FGF22 protein, primary screen, FGF22 synaptogenesis inhibitor project, biophysical, thermal shift, single point; Fibroblast growth factor 22 (Homo sapiens), Q9HCT0; recombinant FGF22 thermal shift, SYPRO orange fluorescence; percent of sucrose octasulfate shift, DMSO zero; calls only at 9.99 µM; actives 1.5% (n = 340,000);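 active = melting point raised past a set limit in the mean and every replicate; three in four hits are not shown here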
Target sequence (Q9HCT0 whole entry, looked up): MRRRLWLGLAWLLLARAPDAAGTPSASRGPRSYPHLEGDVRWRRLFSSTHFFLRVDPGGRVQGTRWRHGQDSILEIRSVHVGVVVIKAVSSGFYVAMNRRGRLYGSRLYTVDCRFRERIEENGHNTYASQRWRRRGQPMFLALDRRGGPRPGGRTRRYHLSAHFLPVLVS
Beta cell apopt: inhibitors of cytokine-induced beta cell apoptosis, primary screen, luminescence; INS-1E cytokine-induced death, ATP luminescence, 48 h; percent of positive-control rescue, neutral wells zero; protection from apoptosis, % (test concentration not listed); actives 0.8% (n = 300,000);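 active = all replicates at 75% or more, or half of them and the mean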;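 note: 0% = cytokine-treated negative control wells and 100% = positive control rescue; higher means more ATP so stronger rescue from cytokine killing; wells of about 40 µL received 100 nL stock; the first replicate is given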
ALR H2O2 inh: inhibitors of human ALR sulfhydryl oxidase, primary screen, biochemical, H2O2 detection, HRP-luminol luminescence, single point | FAD-linked sulfhydryl oxidase ALR (Homo sapiens), P55789 | purified ALR, DTT oxidation | inhibition, % (concentration not given with the values) | actives 3.8% (n = 290,000);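 active = mean and each replicate at 75% or more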;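 note: stock transfer was 7.5 nL into about 7.5 µL; 0% = neutral wells and 100% = wells with inactivated enzyme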
Target sequence (P55789 whole entry, looked up): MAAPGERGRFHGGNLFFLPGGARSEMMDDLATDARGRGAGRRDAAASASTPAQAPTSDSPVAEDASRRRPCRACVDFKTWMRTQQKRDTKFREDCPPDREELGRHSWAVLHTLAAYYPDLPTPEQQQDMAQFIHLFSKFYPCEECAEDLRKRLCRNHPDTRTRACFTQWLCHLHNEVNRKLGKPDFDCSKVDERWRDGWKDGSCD
rRNA inh HTS OD600: recorded beside rRNA inh HTS, whose call it bears; OD600 change, %; measured here: OD600 growth;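 optical density of the mix in the first replicate; 0 = DMSO median and -100 = no signal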
rRNA inh HTS RFP: also measured in rRNA inh HTS; calls as there; RFP signal change, %; measured here: RFP humanized mutant strains;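 first replicate; 0 = DMSO median and -100 = no signal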
An asterisk follows results filed as active; i = inactive; . = not tested or not shown; & = joins results of further samples.

Fields: rRNA inh HTS, rRNA inh HTS OD600, rRNA inh HTS RFP, MLL AF4-AF9 inh, FGF22 binding, Beta cell apopt, ALR H2O2 inh
CC(=O)OC1CC(OC2C(O)CC(OC3C(O)CC(OC4CCC5(C)C(CCC6C5CC(O)C5(C)C(C7=CC(=O)OC7)CCC65O)C4)OC3C)OC2C)OC(C)C1OC1OC(CO)C(O)C(O)C1O (stereo not given)
→ ., ., ., -3.5, i, ., .
CCCCn1nnnc1C(CCc1ccccc1)N1CCC(n2c(=O)[nH]c3ccccc32)CC1 (stereo not given)
→ ., ., ., -1.8, i, ., .
CC(=O)C1C(N2CC2)CC2C3CCC4=CC(=O)CCC4(C)C3CCC21C (stereo not given)
→ ., ., ., 8.0, i, ., .
O=P(OC1=CCCCC1)(c1ccccc1)c1ccccc1
→ ., ., ., -1.1, i, ., .
NS(=O)(=O)c1nc[nH]c1[N+](=O)[O-]
→ ., ., ., -1.1, i, ., .
CC1C(=O)CC2(C(C)C)CC12 (stereo not given)
→ ., ., ., -1.6, i, ., .
COC[C@H]1OC(=O)c2coc3c2[C@@]1(C)C1=C(C3=O)[C@@H]2CCC(=O)[C@@]2(C)C[C@H]1OC(C)=O
→ ., ., ., 1.8, i, ., .
COC(=O)C1C(c2ccccc2)CC2CCC1N2C (stereo not given)
→ 5, 8, 2.1, ., i, ., .
O=C(NCCN1CCC2(CC1)C(=O)NCN2c1ccccc1)C(c1ccccc1)c1ccccc1
→ -4, -12, 2.6, ., i, ., .
CNC(C)Cc1ccc(OC)cc1 (stereo not given)
→ 1, -3, 0.0, ., i, ., .

Carrying on.
Fields: rRNA inh HTS, rRNA inh HTS OD600, rRNA inh HTS RFP, MLL AF4-AF9 inh, FGF22 binding, Beta cell apopt, ALR H2O2 inh
O=C(NC1CCCCC1)N1Cc2cc(Br)ccc2-n2nncc2C1
→ -20, -16, -1.6, ., i, ., .
O=C1CC[C@@]2(O)[C@H]3Cc4ccc(O)c5c4[C@@]2(CCN3CC2CC2)C1O5 (stereo not given in full)
→ -6&0, 8&-2, -4.0&0.0, ., i, ., .
CC(C)OC(=O)C1C(c2ccc(I)cc2)CC2CCC1N2C (stereo not given)
→ 3, -2, 2.6, ., i, ., .
C[C@]12CC[C@H]3[C@@H](CCC4=CC(=O)CC[C@@H]43)[C@@H]1CC[C@@H]2O
→ -13, -11, -1.4, ., i, ., .
Cc1ncc2n1-c1ccc(Cl)cc1C(c1ccccc1F)=NC2
→ -17, -20, -1.2, ., i, ., .
O=C1CN=C(c2ccccc2)c2cc([N+](=O)[O-])ccc2N1
→ -3, 1, -2.5, ., i, ., .
COc1ccc2c3c1OC1C(=O)CC[C@@]4(O)[C@@H](C2)N(CC2CC2)CC[C@]314 (stereo not given in full)
→ 3, 1, -0.9, ., i, ., .
COC(=O)C1C(c2ccc(C)cc2)CC2CCC1N2C (stereo not given)
→ 11, 7, -0.4, ., i, ., .
c1ccc(C2(N3CCCCC3)CCCCC2)cc1
→ 2, 6, -0.9, ., i, ., .
O=C(NCCN1CCC2(CC1)C(=O)NCN2c1ccccc1)c1ccc(F)cc1
→ 13, 16, 3.3, ., i, ., .

The list goes on, overlapping the part above by 3 compounds.
Fields: rRNA inh HTS, rRNA inh HTS OD600, rRNA inh HTS RFP, MLL AF4-AF9 inh, FGF22 binding, Beta cell apopt, ALR H2O2 inh
COC(=O)C1C(c2ccc(C)cc2)CC2CCC1N2C (stereo not given)
→ 11, 7, -0.4, ., i, ., .
c1ccc(C2(N3CCCCC3)CCCCC2)cc1
→ 2, 6, -0.9, ., i, ., .
O=C(NCCN1CCC2(CC1)C(=O)NCN2c1ccccc1)c1ccc(F)cc1
→ 13, 16, 3.3, ., i, ., .
CC(N)Cc1ccc(O)cc1 (stereo not given)
→ 10&-3, 8&-11, -0.4&-1.7, ., i, ., .
CCOC(=O)C1C(OC(=O)c2ccccc2)CC2CCC1N2C (stereo not given)
→ 14, 9, 1.6, ., i, ., .
C[C@H]1CNCCN1c1ccc(N2CC[C@H](O)C2)c(C#N)c1
→ 43, 27, 2.2, ., i, ., .
O=C(NCCN1CCC2(CC1)C(=O)NCN2c1ccccc1)c1ccc(Cl)c(Cl)c1
→ -14, -10, 5.9, ., i, ., .
Cc1cc(N2CCNC[C@H]2C)ccc1N1CCN[C@@H](C)C1
→ 11, 14, 3.7, ., i, ., .
COc1ccccc1N
→ 5, -1, -0.7, ., i, ., .
CC(C)NC1(c2ccccc2)CCCCC1
→ 6, 2, 1.6, ., i, ., .
Clc1ccc([C@H]2CC3CCC2N3)cn1 (stereo not given in full)
→ 0&-1, 7&0, 2.0&-2.9, ., i, ., .
Cc1cc(N2CCNC[C@@H]2C)ccc1N1CC[C@@H](O)C1
→ 7, 21, 34, ., i, ., .
Brc1ccc2c(c1)-n1nncc1CNC2
→ 24, 15, 5.3, ., i, ., .

The listing continues:
Fields: rRNA inh HTS, rRNA inh HTS OD600, rRNA inh HTS RFP, MLL AF4-AF9 inh, FGF22 binding, Beta cell apopt, ALR H2O2 inh
CN1CC[C@@H]2CN[C@H](c3ccccc3)C[C@@H]21
→ 22, 11, 3.6, ., i, ., .
Cc1cc(N2CCNC[C@H]2C)ccc1N1CCN[C@H](C)C1
→ 31, 24, 1.0, ., i, ., .
CN1CCC2(CC1)NC(=O)c1ccccc1N2
→ 12, 14, -1.7, ., i, ., .
CCOC(=O)CC(SP1(=S)OCC2(CCCCC2)CO1)C(=O)OCC (stereo not given)
→ -2, -29, -8.6, -2.0, ., ., .
Cc1ccc(OC(=O)N(C)C[C@H]2OCc3ccccc3-c3c(n(C)c4ccccc34)C(=O)N([C@H](C)CO)C[C@@H]2C)cc1
→ 0, 2, 2.1, 8.3, ., ., .
O=C([C@@H]1N[C@@H]2c3cccc(=O)n3C[C@@H]2[C@H]1CO)N1CCCCC1
→ 3, 8, 0.9, 6.8, ., ., .
C[C@@H]1CN([C@H](C)CO)C(=O)CCCn2cc(nn2)CO[C@@H]1CN(C)C(=O)Oc1ccc2ccccc2c1
→ -2, -2, 2.4, -1.4, ., ., .
C/C=C/c1ccc(C2[C@@H]3CN(Cc4cocn4)C[C@H]2N3)cc1 (stereo not given in full)
→ 4, 5, -1.3, 29*, ., ., .
C/C=C/c1ccc(C2[C@@H]3CN(Cc4cccc(F)c4)C[C@H]2N3)cc1 (stereo not given in full)
→ -57&-58, -78&-78, -14&-10, 11&-3.3, ., ., .
Cc1cccc(S(=O)(=O)N2[C@@H]3c4ccc(-c5ccc(F)cc5)c(=O)n4C[C@H]2[C@H](CO)[C@H]3C(=O)O)c1
→ 0, 4, -3.6, 0.5, ., ., .

The list continues.
Fields: rRNA inh HTS, rRNA inh HTS OD600, rRNA inh HTS RFP, MLL AF4-AF9 inh, FGF22 binding, Beta cell apopt, ALR H2O2 inh
COc1ccc(-c2ccc([C@@H]3[C@@H](CO)N4CCCCN(C(=O)Cc5ccccc5)C[C@@H]34)cc2)cc1
→ -52, -66, -3.6, -3.1, ., ., .
COC(=O)[C@H]1[C@H](CO)[C@H]2Cn3c(ccc(C4=CCCCC4)c3=O)[C@@H]1N2CC1CCCC1
→ -4, -31, 20, 3.7, ., ., .
COC(=O)[C@H]1[C@H](CO)[C@H]2Cn3c(ccc(-c4ccccc4OC)c3=O)[C@@H]1N2Cc1ccccc1
→ -4, -2, -2.3, -0.6, ., ., .
CC=Cc1ccc2n(c1=O)C[C@H]1[C@H](CO)[C@@H](C(=O)OC)[C@@H]2N1CC1CCCC1 (mixture of isomers)
→ -5, -16, 0.2, -2.7, ., ., .
C/C=C/c1ccc(C2[C@@H]3CN(C(C)=O)C[C@H]2N3)cc1 (stereo not given in full)
→ 7&3, 24&12, 2.4&-1.9, -11&-3.3, ., ., .
C/C=C/c1ccc(C2[C@@H]3CN(Cc4nccs4)C[C@H]2N3)cc1 (stereo not given in full)
→ 3&6, 2&5, -1.8&-2.1, 12&4.7, ., ., .
COC(=O)[C@@H]1[C@@H](CO)[C@@H]2Cn3c(ccc(-c4ccccc4)c3=O)[C@H]1N2CC1CCCC1
→ 1, -3, 3.7, 0.1, ., ., .
NCCc1c[nH]c2ccc(C(N)=O)cc12
→ ., ., ., -1.1, i, -5, .
[Cl][Pt+2][Cl].[NH-]C1CCCCC1[NH-] (stereo not given)
→ ., ., ., -2.4, i, ., 43
C[C@](N)(CCP(=O)(O)O)C(=O)O
→ ., ., ., -2.1, i, ., -6

Next section.
Fields: rRNA inh HTS, rRNA inh HTS OD600, rRNA inh HTS RFP, MLL AF4-AF9 inh, FGF22 binding, Beta cell apopt, ALR H2O2 inh
O=[N+]([O-])O[C@H]1CO[C@H]2[C@@H]1OC[C@H]2O[N+](=O)[O-]
→ ., ., ., -1.9, i, ., 2
Clc1cccc(NC2=NCCS2)c1
→ -16, -25, -0.2, 1.8, i, ., .
Cc1cccc(S(=O)(=O)N2[C@@H]3c4ccc(-c5ccccc5)c(=O)n4C[C@H]2[C@H](CO)[C@H]3C(=O)O)c1
→ 2, 6, -4.2, -0.8, i, ., .
Fc1cccc(-c2ccc3c(c2)CNCc2cnnn2-3)c1
→ 8, 4, 3.0, -0.8, i, ., .
Cc1ncoc1C(=O)NCC1=C(c2cccc3ccccc23)C[C@@H]2CC[C@H]1N2Cc1ccco1
→ 5, -1, -7.5, 3.1, i, ., .
CCC(c1nnnn1C1CCCCC1)N1CCC2(CC1)C(=O)NCN2c1ccccc1 (stereo not given)
→ -1, 1, -1.2, -0.2, i, ., .
CC(C)(C)C1(CCO)C(=O)NC(=S)NC1=O
→ 2, 9, -1.8, -2.7, i, ., .
O=C1CNC[C@@H]2[C@@H](c3ccc(Br)cc3)[C@H](CO)N12
→ 4, -5, -5.1, -7.7, i, ., .
CCC1([N+](=O)[O-])COP(=O)(NCc2cccnc2)OC1 (stereo not given)
→ 0, 2, 1.2, -4.8, i, ., .
COCC#Cc1ccc([C@H]2[C@H](CO)N3CCCCN(C(=O)Cc4ccccn4)C[C@@H]23)cc1
→ -2, 4, -1.1, -2.6, i, ., .

Additional entries:
Fields: rRNA inh HTS, rRNA inh HTS OD600, rRNA inh HTS RFP, MLL AF4-AF9 inh, FGF22 binding, Beta cell apopt, ALR H2O2 inh
CCCC1(CCO)C(=O)NC(=S)NC1=O
→ 22, 17, 2.4, 3.2, i, ., .
O=C1CNC[C@H]2[C@@H](c3ccc(Br)cc3)[C@@H](CO)N12
→ -1, 1, -1.1, -3.8, i, ., .
CCC1(CC)C(=O)NC(=O)N(c2ccccc2)C1=O
→ 3, 2, -3.6, -1.4, i, ., .
CCOC(=O)[C@]12Cc3cc(OC)ccc3[C@H]1N(Cc1ccccc1)C(=O)c1cc(F)c(F)cc12
→ 3, 3, -0.3, -6.9, i, ., .
CC(C)C[C@H]1COc2cccc(N3CCN(C)CC3)c2S(=O)(=O)N1
→ 14, 11, 4.4, 0.3, i, ., .
CC(C)CN1Cc2cc(N3CCCCC3)ccc2-n2nncc2C1
→ -4, 4, 5.5, 6.5, i, ., .
COc1ccc(C#Cc2ccc([C@H]3[C@H](CO)N4CCCCN(C(=O)Cc5ccncc5)C[C@@H]34)cc2)cc1
→ -6, -31, 12, -2.0, i, ., .
CN(C)CC#Cc1ccc([C@H]2[C@@H](CO)N3CCCCN(C(=O)Cc4ccccn4)C[C@H]23)cc1
→ 3, 6, -1.0, 6.7, i, ., .

Single records, from the list above. Order of values: rRNA inh HTS | rRNA inh HTS OD600 | rRNA inh HTS RFP | MLL AF4-AF9 inh | FGF22 binding | Beta cell apopt | ALR H2O2 inh
COc1ccc(C#Cc2ccc([C@H]3[C@H](CO)N4CCCCN(C(=O)Cc5ccncc5)C[C@@H]34)cc2)cc1 in the list: -6 | -31 | 12 | -2.0 | i | . | .
CCC1(CC)C(=O)NC(=O)N(c2ccccc2)C1=O in the list: 3 | 2 | -3.6 | -1.4 | i | . | .
CC(C)CN1Cc2cc(N3CCCCC3)ccc2-n2nncc2C1 in the list: -4 | 4 | 5.5 | 6.5 | i | . | .
CCCC1(CCO)C(=O)NC(=S)NC1=O in the list: 22 | 17 | 2.4 | 3.2 | i | . | .

Bioassay records: PubChem, Broad Institute

These rows are one share of the data (hit frequency here may not be typical).
